PINK1 modulator = A Quantitative High throughput Screen to Identify Chemical Modulators of PINK1 Expression; PINK1 immunofluorescence, high-content cytometry, 24 h; Potency, µM (top dose mostly 76.6 µM), without a hit: at the top dose activation (PINK1 increase), most hits filed as activators; hit rate 0.2% among 410,000; active = well fitted activation curve with a large enough effect; inconclusive = small, poorly fitted or top-dose-only effect; inactive = flat fitted curve, though single readings scatter; cell line not stated here;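 also: potency is read from the fitted curve at half-maximal effect; % of control where 0% means no effect; nearly all actives have a fitted effect of over 65% in size; a mitochondrial uncoupler was the plate control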
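PINK1 protein level read as immunofluorescence by microplate cytometer in a fixed, stained stable cell line after 24 h exposure to five compound concentrations, with CCCP as control.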
Sfp PPTase inh = qHTS Assay for Inhibitors of Bacillus subtilis Sfp phosphopantetheinyl transferase (PPTase). 4'-phosphopantetheinyl transferase ffp (Bacillus subtilis), Q9F4F7. Biochemical Sfp PPTase activity, qHTS. Potency, µM, for inactives: max response, negative = inhibition, hits mostly inhibitors. hit rate 3.5% among 310,000. AID 1490, 2009; active = well fitted inhibition curve with a large enough effect; inconclusive = small, poorly fitted or top-dose-only effect, or another doubt; inactive = no such curve, though single readings can be large or run the other way;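 also: the enzyme is Sfp with the accession as filed and its product quenches rhodamine fluorescence; potency is read from the fitted curve at half-maximal effect; 0% = enzyme reaction without inhibitor and -100% = no enzyme wells; top concentration of the series not given in the record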
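Fluorescence-quenching assay with 15 nM Sfp, 5 uM rhodamine-CoA and 12.5 uM BHQ-2-labelled ybbR peptide in pH 7.6 Hepes/MgCl2 buffer. Enzyme was pre-incubated with compound for 15 min at room temperature. Rate was taken from the 30-min fluorescence change (525/598 nm).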
TRPML1 agonist = qHTS for Agonists of the Human Mucolipin Transient Receptor Potential 1 (TRPML1); activation, % (test concentration not listed); AID 624414, 2012; Mucolipin-1 (Homo sapiens), Q9GZU1; TRPML1-expressing cells, Ca2+ dye fluorescence, FDSS; host cell line not named in the record; reference of the full effect not given here; hit rate 0.12% among 410,000; in the data active = activation above about 50%; inconclusive = about 30% to 50%; inactive = below about 30%; also: 0% is about no effect; the text of the record puts the active cut at 80%
Target sequence (Q9GZU1 whole entry, looked up): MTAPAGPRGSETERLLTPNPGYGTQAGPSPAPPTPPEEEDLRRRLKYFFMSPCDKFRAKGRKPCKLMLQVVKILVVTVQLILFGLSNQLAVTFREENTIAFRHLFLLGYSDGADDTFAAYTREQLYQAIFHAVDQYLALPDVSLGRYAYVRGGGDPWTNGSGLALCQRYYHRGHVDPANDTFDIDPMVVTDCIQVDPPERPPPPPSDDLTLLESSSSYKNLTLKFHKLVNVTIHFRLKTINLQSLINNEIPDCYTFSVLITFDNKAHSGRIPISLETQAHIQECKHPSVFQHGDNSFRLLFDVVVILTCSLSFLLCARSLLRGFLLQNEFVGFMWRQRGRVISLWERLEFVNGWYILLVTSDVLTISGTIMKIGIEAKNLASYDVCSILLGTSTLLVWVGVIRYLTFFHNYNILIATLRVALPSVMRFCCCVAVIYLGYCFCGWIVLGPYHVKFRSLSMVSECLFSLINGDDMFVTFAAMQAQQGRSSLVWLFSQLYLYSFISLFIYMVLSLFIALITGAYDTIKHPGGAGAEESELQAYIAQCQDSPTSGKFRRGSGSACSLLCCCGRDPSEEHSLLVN
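Tet-induced TRPML1-DL cells, 1,500 per well, cultured overnight, were loaded with a no-wash Ca2+ dye for 45–90 min. Calcium fluorescence was recorded on the FDSS for 110 s after compound addition, before the EC80 agonist (4 uM 54-4) was added.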
TRPV1 PAM = HTS Assay for Compounds that Act as Potentiators of the Vanilloid Receptor 1; potentiation, % at 8.33 µM; Transient receptor potential cation channel subfamily V member 1 (Homo sapiens), Q8NER1; hit rate 0.02% among 320,000; TRPV1-expressing cells, Fluo-8 calcium influx, capsaicin EC20 potentiation; host cell line not named in the record; control for the full effect not named in the record; active means potentiation above 80%; inconclusive means 30% to 80%; inactive means below 30%; also: 0% is about no effect
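Cells expressing TRPV1 were dye-loaded with Fluo-8 and read kinetically: 10 s baseline, 3 min after compound (agonist portion), then 2 min after EC20 capsaicin (allosteric enhancer portion). Calcium-bound dye fluorescence at 480/520 nm.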
Menin MLL FP FL = qHTS Assay for Inhibitors Targeting the Menin-MLL Interaction in MLL Related Leukemias: Competition With Fluorescein Labeled MLL-derived Peptide. 290,000 tested, under 10 active. Fluorescence polarization, fluorescein-MLL peptide displacement from menin. FP activity change, % at 61.4 µM; inconclusive = falling polarisation curve, or a change in total fluorescence; inactive = total fluorescence flat and polarisation flat or rising; no compound was filed as active; the % refers to the polarisation; negative = inhibition;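 also: % of control where 0% means no effect; inhibitors lower the polarisation; unlabelled MLL peptide was the positive control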
TRPML1 blocker = qHTS for Inhibitors of the Human Mucolipin Transient Receptor Potential 1 (TRPML1) | Mucolipin-1 (Homo sapiens), Q9GZU1 | TRPML1-inducible cells, Ca2+ dye fluorescence, FDSS; hits give low values; inhibition of EC80 agonist-evoked calcium signal | activity change, negative = inhibition, % (concentration not given with the values) | hit rate 0.02% among 390,000; in the data active means activity change below about -50%; inconclusive means about -30% to -50%; inactive means above about -30%;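 also: stimulus is agonist 54-4 at its EC80 concentration; % is scaled to controls: 0 for no effect and ±100 for the full control effect; compound concentration not given in the record; the text of the record puts the active cut at -80%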
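TRPML1-DL cells, Tet-induced overnight (~16 h, 37 °C) at 1,500 cells/well, were loaded with Ca8 no-wash dye plus quencher for 45-90 min at room temperature. Compounds were pinned during FDSS kinetic reading; agonist 54-4 at EC80 (4 uM final) then added.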
ClpP mod = qHTS Assay for Activators of ClpP | ATP-dependent Clp protease proteolytic subunit (Bacillus subtilis (strain 168)), P80244 | purified B. subtilis ClpP, FRET peptide cleavage, 20 min | Potency, µM (doses to about 57.5 µM), for the others: at the top dose activity change, negative = active | hit rate 1.9% among 340,000 | AID 651965, 2013; active = well fitted falling curve with a large enough effect; inconclusive = small, poorly fitted or top-dose-only effect; inactive = no such curve, though single readings can be large or run the other way; also: potency is read from the fitted curve at half-maximal effect; the source files actives as falling curves though it sought activators and does not explain the sign; nearly all actives have a fitted effect of over 65% in size; many hits overshoot -100%
Target sequence (P80244 whole entry, looked up): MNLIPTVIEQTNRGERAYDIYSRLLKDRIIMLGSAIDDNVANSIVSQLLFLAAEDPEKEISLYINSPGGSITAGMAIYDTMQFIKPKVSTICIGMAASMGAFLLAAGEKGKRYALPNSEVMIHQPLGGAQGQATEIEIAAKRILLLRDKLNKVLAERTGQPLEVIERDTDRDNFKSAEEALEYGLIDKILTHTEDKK
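Purified B. subtilis ClpP, 10 microg/mL final in Tris/HCl pH8 with KCl, BSA, glycerol and Tween-20, cleaved an Abz/nitrotyrosine-quenched decapeptide. Fluorescence (ex 320, em 430) was read at 0 and 20 min at room temperature. Delta was normalized to 5.8 microM ADEP and DMSO/no-enzyme controls.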
* = called active by the depositor; ? = inconclusive; nt = no result given; & = joins results of further samples; [ ] = another dose, or the depositor's remark.

The line under a structure holds: PINK1 modulator	Sfp PPTase inh	TRPML1 agonist	TRPV1 PAM	Menin MLL FP FL	TRPML1 blocker	ClpP mod
> OC(c1ccc(F)cc1)C(CN1CCOCC1)c1ccccc1 (stereo not drawn)
→ 2.5%	6%	0.1	0	-2.1	-11	nt
> COC(=O)c1cc(C)nc2c1c(=O)nc(SCc1cc(C)ccc1C)n2C1CC1
→ 0.0%	nt	-0.5	nt	nt	-7	1.2%
> CCC(C)NCCOc1cc(C)cc(C)c1C (stereo not drawn)
→ -0.3%	56µM*	-0.5	-2	-1.5	-3	nt
> CC(C)(C)c1oc(C(=O)O)cc1CN1CCOCC1
→ -2.6%	-13%	-0.4	3	-7.6	6	nt
> Cc1ccc([C@@H]2CC=C(C(=O)O)[C@H](c3ccccc3)N2S(=O)(=O)c2ccc(C)cc2)cc1
→ -0.5%	nt	-0.3	21	nt	15	2.1%
> CCCCCCCCN1[C@@H](CC(=O)OC)c2cc(F)ccc2S1(=O)=O
→ 4.4%	nt	0.8&0.2	nt	nt	39	0.6%&0.7%
> O=C(c1ccc(-c2nnc(Nc3ccccc3)c3ccccc23)cc1)N1C[C@H]2C[C@H](C1)c1cccc(=O)n1C2
→ -0.5%	20%	-0.3	18	1.6	0	-3.0%
> CCOC(=O)c1[nH]c2ccccc2c1NC(=O)c1ccc(Br)o1
→ -3.0%[38.3 µM]	-5%	2.5	3	-2.7	23	-1.1%
> O=C(CN1C(=O)/C(=C/c2ccccc2)SC1=S)NC1CCS(=O)(=O)C1 (stereo not drawn)
→ -1.5%	-12%	-0.7	11	nt	1	1.0%
> Cc1ccc(OCC(=O)N2CCN(c3nnc(-c4ccccc4)c4ccccc34)CC2)cc1
→ 0.9%[38.3 µM]	11%	3.9	-5	2.7	-13	2.2%
> CCC(=O)c1cn(CC(=O)Nc2ccc(F)cc2)c2ccccc12
→ 5.0%	nt	-0.1	nt	nt	20	-0.1%
> CCOc1ccc(NS(=O)(=O)c2ccc3[nH]cc(C(=O)N(CC)CC)c(=O)c3c2)cc1
→ 2.3%	19%	-0.4	-11	3.9	3	-3.6%
> COc1ccc(OC)c(-n2nnnc2SCC(=O)O)c1
→ 5.6%[38.3 µM]	-5%	0.2	-9	1.2	-6	-0.2%
> O=C1NC(=S)N/C1=C/c1cc2c(cc1[N+](=O)[O-])OCO2
→ -0.1%	6%	-0.2	3	-14	-2	1.5%
> CCn1c(SCc2ccccc2)nnc1-c1cccs1
→ -1.9%	13%	-0.5	10	-0.7	-10	-11%
> CN(C)/C=C(\C#N)c1nc2ccccc2[nH]1
→ nt	6%	-0.3	?	1.7	9	1.1%
> O=C1C(=O)N(C2CCN(S(=O)(=O)c3ccc(F)cc3)CC2)CCN1Cc1ccccc1
→ 1.4%	nt	-1.1	nt	nt	54	1.0%
> CCOc1ccccc1NC(=O)c1sc2ncn(CC(=O)N3CCOCC3)c(=O)c2c1C
→ 3.2%	-9%	0.3	-3	-2.0	34	nt
> COc1ccc(NC(=O)N(C)C[C@H]2Oc3c(NC(=O)Nc4ccc(C(F)(F)F)cc4)cccc3C(=O)N([C@H](C)CO)C[C@@H]2C)cc1
→ -2.2%	nt	0.6	nt	nt	-20	-0.6%
> COc1ccc(CCNC(=O)C2CCN(S(=O)(=O)c3cccs3)CC2)cc1OC
→ 1.8%	-2%	0.1	0	-0.5	-8	nt
> COc1cc(NC(=S)N2CCN(c3ccccn3)CC2)cc(OC)c1OC
→ -2.2%	11%	0.0	11	-0.9	5	6.4%
> COc1ccc(NC(=O)CSc2nc3ccccc3n2CC(=O)N(C)C2CCCCC2)cc1
→ -0.7%	nt	-0.2	nt	nt	2	-1.0%
> COc1ccc(C(=O)Cn2nnc(-c3ccccc3-n3cnnn3)n2)cc1
→ -3.5%[38.3 µM]	20%	0.8	16	2.4	-10	-0.3%
> Cc1ccc(/C=C/C(=O)Nc2ncc(C)s2)o1
→ 13%	13µM*	1.0	-2	?	5	-11%
> COCCNC(=O)c1ccccc1NC(=O)c1ccccc1N(C)S(=O)(=O)c1ccccc1
→ -0.3%	12%	-0.7	5	6.5	-4	-2.1%
> COCCNC(=O)/C(C#N)=C/c1cccc(OCc2ccccc2)c1
→ 4.6%	8%	0.3	27	-4.8	-10	nt
> O=C(Cc1ccc(NC(=O)N2CCSc3ncccc32)cc1)NCc1ccccc1
→ -0.1%	nt	0.0	nt	nt	-6	-16%
> COc1cc([N+](=O)[O-])ccc1NC(=O)NCCCN1CCCC1=O
→ -1.3%	0%	0.5	12	-2.7	51	0.6%
> O=C(COC(=O)c1ccccc1O)Nc1ccc(S(=O)(=O)N2CCCCC2)cc1
→ 2.7%	25%	0.9	3	-1.6	34	nt
> Cc1ccc(NC(=O)c2ccc3c(c2)C(=O)N(Cc2cccnc2)C3=O)c(C)c1
→ 0.7%	8%	1.9	2	-0.5	33	nt
> O=C(NCc1ccco1)c1csc(Nc2ccccc2Cl)n1
→ -6.0%[38.3 µM]	28µM*	2.1	-11	1.7	-6	-4.8%
> CC1Cc2ccccc2N1C(=O)CSc1nncn1C (stereo not drawn)
→ 1.4%	18%	0.1	-1	0.1	-5	nt
> CCOc1ccc(OCC)c(NC(=O)C2CCN(S(=O)(=O)c3cn(C)cn3)CC2)c1
→ -0.7%	nt	1.5	nt	nt	23	1.4%
> COc1cc(/C=C/C(=O)N2c3ccccc3Sc3ccc(C(F)(F)F)cc32)cc(OC)c1OC
→ 8.1%	5%	0.1	15	4.3	-5	?
> CC(C)n1ncc2c(C(=O)Nc3ccccc3SCC(N)=O)cc(C3CC3)nc21
→ 0.5%	nt	-0.6	nt	nt	3	-2.6%
> Cc1ccc(N)c(C(=O)CCCCC(=O)O)c1
→ 5.4%[38.3 µM]	1%	-0.4	-25	4.6	4	-1.4%
> Cc1ccc(C)c(NC(=O)C(Sc2nncn2C)c2ccccc2)c1 (stereo not drawn)
→ 0.7%	8%	0.1	-15	-1.8	17	-1.6%
> O=C(NCCCN1CCCC1=O)c1ccccc1NS(=O)(=O)c1ccc(F)cc1
→ 3.7%[38.3 µM]	8%	0.5	-6	2.4	-10	-25%
> O=C(Nc1nnc(COc2ccc(Cl)cc2)s1)c1ccc([N+](=O)[O-])cc1
→ 5.6%	0%	-0.4	11	3.0	5	-0.7%
> O=C(NCCCn1ccnc1)c1ccc(Cl)c(Cl)c1
→ 0.5%	13%	0.2	?	2.0	8	0.3%
> CCOc1cc(CNCCc2ccc(S(N)(=O)=O)cc2)ccc1OCC(=O)NC1CCCCC1
→ 15%	16%	-0.3	1	-1.3	42	-0.8%
> Cc1ccc(S(=O)(=O)N2CCN(C(=O)N3CCCCC3)CC2)c(C)c1
→ 0.8%	nt	-0.4	nt	nt	-5	-0.7%
> O=C(c1ccc2c(c1)N(Cc1ccc(Cl)cc1)C(=O)c1ccccc1S2(=O)=O)N1CCOCC1
→ 0.8%	nt	-0.4	nt	nt	5	2.0%
> C[C@H]1CN([C@@H](C)CO)C(=O)c2cccc(NC(=O)C3CC3)c2O[C@H]1CN(C)Cc1ccncc1
→ -0.3%	nt	0.6	nt	nt	19	-1.2%
> O=C(Nc1cccc([N+](=O)[O-])c1)c1ccc(-c2ccccc2)cc1
→ 9.7%	28%	0.0	17	nt	2	1.1%
> O=C(OCn1nnc2ccccc2c1=O)c1cccs1
→ -0.6%	-2%	0.0	-4	4.4	2	-2.4%
> Cc1oc2c(C)c3oc(=O)c(CCC(=O)NCCN4CCOCC4)c(C)c3cc2c1C
→ -0.1%	6%	nt	13	5.5	nt	-3.4%
> CCOC(=O)c1c(S(=O)(=O)N2CCC(C(=O)Nc3cccc(C#N)c3)CC2)c(C)n(C)c1C
→ 1.4%	nt	-0.5	nt	nt	7	-1.5%
> Cc1ccc(CSc2nnc(-c3ccc(S(=O)(=O)N4CCCC4)cc3)o2)cc1
→ 13%[38.3 µM]	10%	-0.2	7	2.9	-4	-2.6%
> O=C(c1cccc(C(F)(F)F)c1)N1CCOc2ccccc21
→ 1.5%	8%	nt	-12	1.4	nt	1.7%
> O=C(Cc1c(F)cccc1Cl)OCN1C(=O)c2ccccc2C1=O
→ 1.1%	3%	2.9	11	3.8	25	nt
> C(=C\c1ccccc1)/CN1CCN(C(c2ccnc3ccccc23)c2nnnn2C2CCCC2)CC1 (stereo not drawn)
→ -0.4%	nt	-0.7	nt	nt	nt	-6.4%
> COc1ccc(S(=O)(=O)N2CCCCC2)cc1NC(=O)CCOc1cc(C)ccc1C
→ 3.0%	nt	0.2	8	nt	16	2.0%
> Cc1cccc(Nc2n[nH]c(C)c2[N+](=O)[O-])c1
→ 0.1%	11%	0.3	1	-0.3	-2	-6.9%
> O=C(c1cc(N2C(=O)C3C4CCC(C4)C3C2=O)ccc1Cl)N1CCN(c2ccccc2F)CC1 (stereo not drawn)
→ 2.1%	-7%	-0.3	3	-5.9	-8	-4.8%
> O=C(Nc1ccccn1)C1CCN(c2ncnc3c2nc2n3CCCCC2)CC1
→ -0.2%	8%	-0.2	1	1.8	-6	-2.3%
> Cc1nc2ccccc2nc1CC(O)(c1ccccc1)c1ccccc1
→ 10%	nt	3.6	nt	nt	11	1.0%
> Cc1ccc(NC(=O)CSc2nnc(CNC(=O)c3ccco3)n2C)c(C)c1
→ -0.3%	nt	-0.3	4	nt	-2	1.4%
